Vaccinia inh = Vaccinia orthopox stage-specific inhibition. Vaccinia-infected cells, mCherry/Venus stage reporter fluorescence; stronger effect = lower value; some inactives read as strong as hits. activity change (mCherry), % (no concentration beside the values). hit rate 0.01% among 89,000. AID 1053133;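 active means mCherry past -33% and 40 or more points under the early reporter, replicates agreeing; inconclusive means past -33% without that gap or agreement; tested in A549 cells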;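 further: scaled between vehicle wells and reference inhibitor wells; 23 nL library stock went into each well; one replicate is shown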
Vaccinia inh Venus = further read-out of Vaccinia inh, marked with its call; activity change (Venus), %; measured here: Venus reporter, other viral stage;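 negative = less Venus signal; first of two replicates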
The depositor's hits bear a star; & = joins results of further samples. This is a subset; count on the stated rates, not on these rows.

C[C@H]1CN([C@@H](C)CO)C(=O)CCCn2cc(nn2)CO[C@@H]1CN(C)C(=O)Oc1ccccc1 was read as Vaccinia inh 5&3 and Vaccinia inh Venus 6&1.
CC(C)C#Cc1cnc2c(c1)C(=O)N([C@@H](C)CO)C[C@H](C)[C@@H](CN(C)Cc1cncnc1)O2 was read as Vaccinia inh 8 and Vaccinia inh Venus -7.
For O=C(C[C@@H]1C[C@@H]2c3cc(NC(=O)CC4CC4)ccc3O[C@@H]2[C@H](CO)O1)NCc1cccnc1 the results were Vaccinia inh 9 and Vaccinia inh Venus 13.
Screening C[C@H](CO)N1C[C@H](C)[C@@H](CN(C)Cc2ccc(O)cc2)OCc2cnnn2CCCC1=O returned Vaccinia inh -7 and Vaccinia inh Venus -4.
Cc1noc(C)c1NC(=O)N(C)C[C@H]1Oc2c(NC(=O)NC(C)C)cccc2C(=O)N([C@H](C)CO)C[C@H]1C was read as Vaccinia inh 7 and Vaccinia inh Venus 5.
For C[C@@H]1CN([C@@H](C)CO)C(=O)c2cccc(NC(=O)NC3CCCCC3)c2O[C@@H]1CN(C)Cc1ccc(Cl)c(Cl)c1 the results were Vaccinia inh inconclusive.
For CCNC(=O)[C@H]1[C@H](CO)[C@H]2Cn3c(ccc(-c4ccccc4F)c3=O)[C@@H]1N2C(=O)CC the results were Vaccinia inh 9 and Vaccinia inh Venus 7.
`C[C@@H]1CN([C@@H](C)CO)C(=O)Cc2cc(NC(=O)NC3CCCCC3)ccc2O[C@H]1CN(C)Cc1ccncc1` gave Vaccinia inh 8 and Vaccinia inh Venus 6.
Screening O=C(c1ccccn1)N1CC(=O)N2[C@H](CO)[C@H](c3ccc(C#CC4CCCC4)cc3)[C@@H]2C1 returned Vaccinia inh -10 and Vaccinia inh Venus -16.
Screening CCC(=O)N1[C@@H]2Cn3c(cccc3=O)[C@H]1[C@@H](C(=O)NC1CCC1)[C@@H]2CO returned Vaccinia inh 4 and Vaccinia inh Venus 7.
C[C@@H]1CN([C@H](C)CO)C(=O)c2cc(NC(=O)Cc3ccccc3)ccc2O[C@@H](C)CCCCO[C@H]1CN(C)C(=O)c1ccccc1 was read as Vaccinia inh -8 and Vaccinia inh Venus -14.
`CC(C)NC(=O)Nc1ccc2c(c1)C(=O)N([C@@H](C)CO)C[C@@H](C)[C@H](CN(C)C(=O)Nc1cccc3ccccc13)OCCCC[C@H](C)O2` gave Vaccinia inh -24 and Vaccinia inh Venus -10.
For C[C@H]1CN([C@@H](C)CO)C(=O)c2cccc(NC(=O)Nc3ccc4c(c3)OCO4)c2O[C@@H]1CN(C)S(C)(=O)=O the results were Vaccinia inh 28 and Vaccinia inh Venus 14.
COc1ccc(NC(=O)Nc2ccc3c(c2)CC(=O)N([C@H](C)CO)C[C@H](C)[C@@H](CN(C)Cc2ccccc2)O3)cc1 was read as Vaccinia inh -31 and Vaccinia inh Venus -23.
C[C@@H]1CN([C@@H](C)CO)C(=O)c2cc(C#CC3(O)CCCC3)cnc2O[C@@H]1CN(C)C was read as Vaccinia inh 19 and Vaccinia inh Venus 14.
Screening COCC(=O)Nc1ccc2c(c1)OC[C@H](C)N(Cc1cccnc1)C[C@@H](C)[C@H](OC)CN(C)C2=O returned Vaccinia inh -7 and Vaccinia inh Venus -5.
Screening COc1ccccc1S(=O)(=O)N1C[C@@H]2N[C@H](C1)C2c1ccc(-c2cccc(F)c2)cc1 (stereo partly drawn) returned Vaccinia inh inconclusive and Vaccinia inh Venus -10.
For CCCc1cn(CC[C@H]2CC[C@H](NC(=O)CCN3CCCCC3)[C@@H](CO)O2)nn1 the results were Vaccinia inh 3 and Vaccinia inh Venus 5.
Screening Cc1ccc(S(=O)(=O)Nc2ccc3c(c2)C(=O)N([C@@H](C)CO)C[C@H](C)[C@@H](CN(C)C(=O)NC(C)C)OCCCC[C@H](C)O3)cc1 returned Vaccinia inh 1 and Vaccinia inh Venus 5.
For O=C(C[C@@H]1C[C@H]2c3cc(NS(=O)(=O)c4ccc(F)cc4)ccc3O[C@H]2[C@H](CO)O1)N1CCOCC1 the results were Vaccinia inh 16 and Vaccinia inh Venus 7.
`C[C@@H]1CCCCO[C@@H](CN(C)C(=O)c2ccccc2)[C@H](C)CN([C@@H](C)CO)C(=O)c2cc(NC(=O)Cc3ccccc3)ccc2O1` gave Vaccinia inh -15 and Vaccinia inh Venus -17.
For C[C@@H]1CN([C@H](C)CO)C(=O)c2cc(NS(=O)(=O)c3ccccc3)ccc2O[C@H]1CN(C)S(C)(=O)=O the results were Vaccinia inh 6 and Vaccinia inh Venus 6.
CCC(=O)N1CC(=O)N2[C@H](C1)[C@@H](c1ccc(-c3cccnc3)cc1)[C@@H]2CO was read as Vaccinia inh 14 and Vaccinia inh Venus 5.
For CCS(=O)(=O)N1CC(=O)N2[C@@H](CO)[C@H](c3ccc(C#CCC4CCCC4)cc3)[C@@H]2C1 the results were Vaccinia inh -14 and Vaccinia inh Venus -15.
Screening COc1ccc(CN(C)C[C@@H]2Oc3ccc(NC(=O)Nc4ccc(OC)cc4)cc3CC(=O)N([C@@H](C)CO)C[C@@H]2C)cc1 returned Vaccinia inh 7 and Vaccinia inh Venus 3.
CCCNC(=O)N(C)C[C@H]1Oc2ncc(C#Cc3ccccc3F)cc2C(=O)N([C@@H](C)CO)C[C@@H]1C was read as Vaccinia inh 13 and Vaccinia inh Venus 4.
COc1ccc(S(=O)(=O)Nc2ccc3c(c2)C(=O)N([C@@H](C)CO)C[C@@H](C)[C@@H](CN(C)Cc2ccc4c(c2)OCO4)OCCCC[C@@H](C)O3)cc1 was read as Vaccinia inh inconclusive.
Screening C[C@@H]1CN([C@@H](C)CO)C(=O)c2cc(NS(=O)(=O)c3cccs3)ccc2O[C@@H]1CN(C)Cc1ccc(-c2ccccc2)cc1 returned Vaccinia inh inconclusive.
COc1ccc(NC(=O)Nc2ccc3c(c2)C(=O)N([C@H](C)CO)C[C@H](C)[C@@H](CN(C)C(=O)CCCN(C)C)OCCCC[C@H](C)O3)cc1 was read as Vaccinia inh 39 and Vaccinia inh Venus 14.
Cc1noc(C)c1S(=O)(=O)N(C)C[C@H]1OCc2ccccc2-c2c(n(C)c3ccccc23)C(=O)N([C@H](C)CO)C[C@@H]1C was read as Vaccinia inh inconclusive.
For C[C@@H]1CCCCO[C@@H](CN(C)C(=O)Cc2ccccc2)[C@H](C)CN([C@H](C)CO)C(=O)c2cc(NS(=O)(=O)c3cn(C)cn3)ccc2O1 the results were Vaccinia inh 3 and Vaccinia inh Venus -3.
For Cc1noc(C)c1NC(=O)Nc1cccc2c1O[C@H](CN(C)Cc1ccc(C(F)(F)F)cc1)[C@@H](C)CN([C@H](C)CO)C2=O the results were Vaccinia inh -2 and Vaccinia inh Venus -3.
Screening CNC(=O)C[C@@H]1CC[C@@H]2[C@H](COC[C@@H](O)CN2Cc2ccc(C(F)(F)F)cc2)O1 returned Vaccinia inh -9 and Vaccinia inh Venus -9.
Screening COc1cccc(CNC(=O)C[C@@H]2CC[C@@H]3[C@H](COc4ccc(NC(=O)c5cccs5)cc4C(=O)N3C)O2)c1 returned Vaccinia inh 5 and Vaccinia inh Venus 17.
Screening O=C(C[C@H]1C[C@@H]2c3cc(NC(=O)CC4CC4)ccc3O[C@@H]2[C@H](CO)O1)NCc1cc(F)ccc1F returned Vaccinia inh 14 and Vaccinia inh Venus 13.
For CC(C)C(=O)Nc1ccc2c(c1)C(=O)N(C)[C@@H]1CC[C@@H](CC(=O)O)O[C@@H]1CO2 the results were Vaccinia inh 2 and Vaccinia inh Venus 2.
For CC(C)NC(=O)N(C)C[C@@H]1Oc2ccc(N(C)C)cc2C(=O)N([C@@H](C)CO)C[C@@H]1C the results were Vaccinia inh 3 and Vaccinia inh Venus 4.
`CCCC(=O)N1CC2(CN(Cc3cccnc3)C2)c2c([nH]c3cc(OC)ccc23)[C@H]1CO` gave Vaccinia inh 8 and Vaccinia inh Venus 0.
`O=C(Nc1cccc(F)c1)N1CCCCN2[C@H](CO)[C@@H](c3ccc(C#CC4CC4)cc3)[C@H]2C1` gave Vaccinia inh inconclusive.
Screening Cc1cc(C(=O)Nc2ccc3c(c2)C(=O)N(C)[C@H]2CC[C@H](CC(=O)N[C@H](C)c4ccccc4)O[C@H]2CO3)no1 returned Vaccinia inh -7 and Vaccinia inh Venus 2.
Screening O=C(Nc1ccccc1F)N1CC(=O)N2[C@@H](CO)[C@@H](c3ccc(C#Cc4ccccc4)cc3)[C@@H]2C1 returned Vaccinia inh -29 and Vaccinia inh Venus -13.
C[C@H]1CN([C@@H](C)CO)C(=O)CCCn2cc(nn2)CO[C@H]1CN(C)Cc1ccc(Cl)c(Cl)c1 was read as Vaccinia inh -28 and Vaccinia inh Venus -22.
`CC(C)NC(=O)N1CC(=O)N2[C@@H](CO)[C@H](c3ccc(/C=C/c4ccccc4)cc3)[C@@H]2C1` gave Vaccinia inh 4 and Vaccinia inh Venus 8.
Screening CS(=O)(=O)Nc1ccc2c(c1)[C@H]1C[C@@H](CC(=O)NCc3cccc(F)c3)O[C@@H](CO)[C@H]1O2 returned Vaccinia inh 2 and Vaccinia inh Venus 0.
Screening O=C(C[C@@H]1C[C@H]2c3cc(NC(=O)Nc4ccc(C(F)(F)F)cc4)ccc3O[C@H]2[C@H](CO)O1)NCC1CC1 returned Vaccinia inh inconclusive.
C[C@@H]1CN([C@H](C)CO)S(=O)(=O)c2ccc(C#CC3CC3)cc2O[C@@H]1CN(C)C(=O)c1ccccn1 was read as Vaccinia inh -4 and Vaccinia inh Venus 0.
Screening O=C(C[C@H]1C=C[C@@H](NC(=O)c2ccccc2)[C@@H](CO)O1)NCCc1ccncc1 returned Vaccinia inh 5 and Vaccinia inh Venus -8.
Screening C[C@H](CO)N1C[C@H](C)[C@H](CN(C)C(=O)[C@H](Cc2ccccc2)N(C)C)OCc2ccccc2-c2ccccc2C1=O returned Vaccinia inh 7 and Vaccinia inh Venus 5.
`CCNC(=O)C[C@H]1CC[C@H]2[C@@H](COc3ccc(NC(=O)Nc4cccc(C#N)c4)cc3C(=O)N2C)O1` gave Vaccinia inh 16 and Vaccinia inh Venus 13.
For COc1ccc(NC(=O)N(C)C[C@@H]2Oc3ccc(NC(=O)C4CCCCC4)cc3CC(=O)N([C@@H](C)CO)C[C@@H]2C)cc1 the results were Vaccinia inh 11 and Vaccinia inh Venus 3.
Screening COCC(=O)N1CC(=O)N2[C@H](CO)[C@@H](c3ccc(-c4ccccc4F)cc3)[C@H]2C1 returned Vaccinia inh -14 and Vaccinia inh Venus -12.
Screening COc1ccc(S(=O)(=O)N(C)C[C@@H]2Oc3ccc(NC(=O)Nc4ccccc4)cc3C(=O)N([C@H](C)CO)C[C@@H]2C)cc1 returned Vaccinia inh -6 and Vaccinia inh Venus 1.
For O=C(C[C@@H]1C=C[C@@H](NC(=O)c2ccncc2)[C@H](CO)O1)Nc1ccccc1 the results were Vaccinia inh 8 and Vaccinia inh Venus 5.
`C[C@H](NC(=O)C[C@H]1CC[C@@H]2[C@H](COC[C@H](O)CN2Cc2ccc(C(F)(F)F)cc2)O1)c1ccccc1` gave Vaccinia inh inconclusive.
For C[C@H](CO)N1C[C@H](C)[C@H](CN(C)C(=O)Nc2cccc3ccccc23)Oc2ccc(NC(=O)Cc3cn(C)c4ccccc34)cc2CC1=O the results were Vaccinia inh 14 and Vaccinia inh Venus 9.
Screening Cc1cc(C(=O)Nc2cccc3c2O[C@@H](CN(C)C(=O)Nc2ccccc2)[C@@H](C)CN([C@@H](C)CO)C3=O)n(C)n1 returned Vaccinia inh 9 and Vaccinia inh Venus 10.
For C[C@H]1CCCCO[C@@H](CN(C)S(=O)(=O)c2cccs2)[C@@H](C)CN([C@@H](C)CO)C(=O)c2cc(NS(=O)(=O)c3cn(C)cn3)ccc2O1 the results were Vaccinia inh 22 and Vaccinia inh Venus 5.
`Cc1ccc(S(=O)(=O)N2C[C@H](O)COC[C@@H]3O[C@@H](CC(=O)NCCN4CCCCC4)CC[C@H]32)cc1` gave Vaccinia inh -7 and Vaccinia inh Venus -3.
Screening C[C@@H]1CN([C@H](C)CO)C(=O)c2cc(C3=CCCCC3)cnc2O[C@H]1CN(C)Cc1ccccc1C(=O)O returned Vaccinia inh 15 and Vaccinia inh Venus 7.

9 entries out of the list, arranged by length of the SMILES, high to low:
For C[C@H]1CCCCO[C@@H](CN(C)S(=O)(=O)c2cccs2)[C@@H](C)CN([C@@H](C)CO)C(=O)c2cc(NS(=O)(=O)c3cn(C)cn3)ccc2O1 the results were Vaccinia inh 22 and Vaccinia inh Venus 5.
For C[C@H](CO)N1C[C@H](C)[C@H](CN(C)C(=O)Nc2cccc3ccccc23)Oc2ccc(NC(=O)Cc3cn(C)c4ccccc34)cc2CC1=O the results were Vaccinia inh 14 and Vaccinia inh Venus 9.
Screening COc1ccc(S(=O)(=O)N(C)C[C@@H]2Oc3ccc(NC(=O)Nc4ccccc4)cc3C(=O)N([C@H](C)CO)C[C@@H]2C)cc1 returned Vaccinia inh -6 and Vaccinia inh Venus 1.
Screening Cc1cc(C(=O)Nc2cccc3c2O[C@@H](CN(C)C(=O)Nc2ccccc2)[C@@H](C)CN([C@@H](C)CO)C3=O)n(C)n1 returned Vaccinia inh 9 and Vaccinia inh Venus 10.
Screening C[C@H](CO)N1C[C@H](C)[C@H](CN(C)C(=O)[C@H](Cc2ccccc2)N(C)C)OCc2ccccc2-c2ccccc2C1=O returned Vaccinia inh 7 and Vaccinia inh Venus 5.
`C[C@H](NC(=O)C[C@H]1CC[C@@H]2[C@H](COC[C@H](O)CN2Cc2ccc(C(F)(F)F)cc2)O1)c1ccccc1` gave Vaccinia inh inconclusive.
`Cc1ccc(S(=O)(=O)N2C[C@H](O)COC[C@@H]3O[C@@H](CC(=O)NCCN4CCCCC4)CC[C@H]32)cc1` gave Vaccinia inh -7 and Vaccinia inh Venus -3.
`CCNC(=O)C[C@H]1CC[C@H]2[C@@H](COc3ccc(NC(=O)Nc4cccc(C#N)c4)cc3C(=O)N2C)O1` gave Vaccinia inh 16 and Vaccinia inh Venus 13.
Screening COCC(=O)N1CC(=O)N2[C@H](CO)[C@@H](c3ccc(-c4ccccc4F)cc3)[C@H]2C1 returned Vaccinia inh -14 and Vaccinia inh Venus -12.

High-throughput results as filed in PubChem.
